Screens deposited in PubChem by several laboratories.
HNF4A DNA FP: change in binding of human HNF4 alpha to DNA; AID 1224865; P41235; HNF4a-FITC DNA binding, fluorescence polarization, 1 h; 0.3% of 360,000 active; activity change, % at 10 µM; in the data active = activity change above about 30%, passing the limit was not always enough;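 note: controls were the assay level and a saturating level of protein; the project sought stronger binding though the title names inhibitors; some compounds called inactive have numbers as strong as hits; positive values seem to mean higher polarization but the record does not say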
Target sequence (P41235 whole entry, looked up): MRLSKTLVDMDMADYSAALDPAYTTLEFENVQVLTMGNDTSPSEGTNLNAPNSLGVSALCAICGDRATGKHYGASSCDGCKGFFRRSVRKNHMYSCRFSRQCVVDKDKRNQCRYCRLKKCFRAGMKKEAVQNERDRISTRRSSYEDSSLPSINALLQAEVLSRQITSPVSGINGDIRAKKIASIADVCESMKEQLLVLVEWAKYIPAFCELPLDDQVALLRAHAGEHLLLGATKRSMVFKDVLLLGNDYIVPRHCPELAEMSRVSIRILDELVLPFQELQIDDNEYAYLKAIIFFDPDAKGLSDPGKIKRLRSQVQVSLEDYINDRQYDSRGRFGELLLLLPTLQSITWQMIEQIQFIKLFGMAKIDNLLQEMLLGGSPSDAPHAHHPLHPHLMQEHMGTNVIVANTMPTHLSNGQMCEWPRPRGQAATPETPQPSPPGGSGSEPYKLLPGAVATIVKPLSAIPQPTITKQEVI
Calb FLC: C. albicans growth modulation with fluconazole. C. albicans CaCi-2 (fluconazole-resistant clinical isolate) + fluconazole, Alamar Blue growth, 48 h. growth inhibition, % (no concentration beside the values). 0.57% of 300,000 active;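 active = most replicates above 75%; inconclusive = exactly half above 75%; inactive = most below 75%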;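 note: all wells also contain fluconazole at 8 µg/ml as a sub-toxic cotreatment; 0% = median of DMSO wells and 100% = median of geldanamycin control wells; wells of about 8 µL received 7.5 nL stock; the first replicate is given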
ALR H2O2 inh: blocks human ALR sulfhydryl oxidase activity; P55789; purified ALR, DTT oxidation, H2O2 HRP-luminol luminescence; inhibition, % (concentration not given with the values); 3.8% of 290,000 active;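 active = mean and each replicate at 75% or more; inconclusive = only one of the two met; inactive = neither met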;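 note: stock transfer was 7.5 nL into about 7.5 µL; 0% = neutral wells and 100% = wells with inactivated enzyme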
Target sequence (P55789 whole entry, looked up): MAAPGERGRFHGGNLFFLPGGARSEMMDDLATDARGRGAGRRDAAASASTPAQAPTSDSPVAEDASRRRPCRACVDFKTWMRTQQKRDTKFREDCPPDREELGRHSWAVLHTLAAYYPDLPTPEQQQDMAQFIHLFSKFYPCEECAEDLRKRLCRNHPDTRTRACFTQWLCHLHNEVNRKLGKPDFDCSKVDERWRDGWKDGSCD
Beta2AR agonist: activates human beta-2 adrenergic receptor causing internalization; 0.43% of 340,000 active; P07550; response, % (test concentration not listed); Am2.2-beta2AR cells, FAP receptor internalization, flow cytometry; reference of the scale not given here;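 active = response above a set limit, near 3 SD of response in nonfluorescent compounds, cut at about 42% in these data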;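 note: stock transfer was 100 nL into about 11 µL; a reference agonist was the positive control; negative values mostly stem from fluorescent compounds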
Target sequence (P07550 whole entry, looked up): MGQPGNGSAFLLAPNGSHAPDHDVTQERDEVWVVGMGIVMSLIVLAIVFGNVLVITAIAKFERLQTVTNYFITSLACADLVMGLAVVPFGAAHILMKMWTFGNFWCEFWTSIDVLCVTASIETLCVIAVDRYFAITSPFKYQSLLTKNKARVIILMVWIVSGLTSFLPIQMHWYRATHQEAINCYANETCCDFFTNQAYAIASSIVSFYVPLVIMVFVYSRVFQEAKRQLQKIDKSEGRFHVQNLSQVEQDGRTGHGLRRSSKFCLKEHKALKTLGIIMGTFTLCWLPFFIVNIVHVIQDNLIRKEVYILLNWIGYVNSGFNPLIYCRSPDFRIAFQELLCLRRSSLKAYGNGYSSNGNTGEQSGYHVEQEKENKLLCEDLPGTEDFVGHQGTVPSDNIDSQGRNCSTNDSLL
Vif A3G: inhibitors of Vif binding to APOBEC3G peptide, primary screen, biochemical, TR-FRET, GST-Vif 1-94, biotin-A3G peptide, dose response retest (AID 1117319). TR-FRET GST-Vif / biotin-A3G peptide binding; higher % means a stronger effect; test concentration not given here; strong numbers were not always called active. one-dose inhibition, %; IC50 in µM for titrated hits. 0.57% of 260,000 active;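 active = above the screen mean plus three standard deviations and confirmed in dose response; inconclusive = results disagree or hit not tested in dose response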;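 note: Vif residues 1-94 fused to GST binding biotinylated APOBEC3G peptide 110-148; 0% = full assay without inhibitor and 100% = GST in place of GST-Vif; retest series ran down from 100 µM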
LANA-H2B inh: blocks KSHV LANA binding to histone H2A/H2B; cell-free LANA-H2A/H2B peptide, fluorescence polarization; Q9QR71; 0.6% of 320,000 active; inhibition, % (no concentration beside the values); AID 2629; in the data active = inhibition mostly above about 10%, no sharp cut-off; inactive = mostly below about 6.7%;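 note: stock transfer was 7.5 nL into about 10 µL; 0% = median of vehicle wells and 100% = median of positive control wells; one replicate is shown; the record names a cut of 25% in any replicate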
RanGTP-Imp inh: inhibitors of RanGTP-importin-beta interaction, primary screen, biochemical, FRET, CFP-Ran, YFP-importin-beta, homogeneous; cell-free CFP-Ran/YFP-importin-beta FRET ratio; inhibition, % (test concentration not listed); 1.1% of 300,000 active; AID 2216;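 active = most replicates above 15%; inconclusive = exactly half above 15%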;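 note: 0% = DMSO wells and 100% = Ran loaded with GDP instead of GTP; wells of about 40 µL received 100 nL stock; the first replicate is given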
An asterisk follows results filed as active; i = inactive; ? = inconclusive; / = not tested or not shown.

SMILES | HNF4A DNA FP | Calb FLC | ALR H2O2 inh | Beta2AR agonist | Vif A3G | LANA-H2B inh | RanGTP-Imp inh
COc1ccc2c(c1)CCC/C2=N\OC(=O)c1ccccc1F | 7.2 | 13 | 3 | 1 | -4% | -0.1 | -0.5
COc1ccc(CCNC(=O)c2nnn(-c3cccc(C)c3)c2N)cc1OC | 5.0 | -2 | -7 | 9 | 7% | 1.7 | -0.3
COc1ccc(Oc2cc(C(F)(F)F)nc(N(C)C)n2)cc1 | 3.5 | -1 | -4 | 7 | 4% | -0.2 | 4.4
COc1ccc(S(=O)(=O)Nc2ccccc2C(F)(F)F)cc1 | -0.8 | -15 | -3 | 0 | 4% | -8.0 | 2.5
Cc1ccccc1OCCCC(=O)Nc1ccc(N2CCOCC2)cc1 | 2.4 | 13 | ? | 4 | 9% | -1.4 | -3.2
Cc1cccc(NC(=O)C(C)C(=O)c2ccccc2)c1 (configuration not stated) | 2.7 | 6 | -13 | -5 | 4% | -3.3 | -3.1
CCOc1ccccc1OCCC(=O)Nc1ccc2c(c1)OCO2 | -0.1 | / | -5 | -6 | -11% | -2.3 | /
CN(C)c1ccc(N/C(=N\S(=O)(=O)c2cccs2)c2ccccc2)cc1 | 4.8 | 26 | 99* | -4 | 5% | -3.1 | -0.4
O=C(O)CCCn1cc(NC(=O)COc2ccccc2)cn1 | -3.9 | -6 | -9 | 1 | / | 0.1 | -1.8
CCc1c(C)sc(NC(=O)/C=C/c2ccc3c(c2)OCO3)c1C(=O)OC | -3.5 | 4 | -21 | -4 | / | 0.4 | ?
CCOc1ccc(N2C(=O)CC(NCCNc3ccc([N+](=O)[O-])cn3)C2=O)cc1 (configuration not stated) | -2.3 | 0 | -2 | -5 | / | -7.4 | 0.9
COc1ccc(S(=O)(=O)N[C@H](C(=O)N2CC[C@@]3(O)CCCC[C@H]3C2)c2ccccc2)cc1 | -1.3 | 6 | -3 | -6 | -2% | 1.3 | 3.0
CC(C)(C)[C@H]1CCC(=O)N([C@H](CSc2ccccc2)Cc2ccccc2)CC1 | -4.7 | 2 | -3 | 2 | / | 3.2 | 0.2
COc1ccc(NC(=O)COc2ccc3oc(=O)cc(C)c3c2)cc1 | 2.0 | 14 | -7 | 15 | -8% | -2.5 | 1.8
CNc1oc(Cc2ccccc2)nc1S(=O)(=O)c1ccccc1 | 6.0 | -7 | 15 | 2 | -1% | -1.3 | -5.0
Cc1ccc(NC(=O)N2CCC(NC(=O)c3cccc(C)c3)CC2)cc1 | 0.9 | 0 | -7 | 2 | / | 1.1 | 4.4
Cc1cc(NCc2ccc3c(c2)OCO3)n2nc(C)nc2n1 | 1.7 | -8 | / | 8 | ? | 3.2 | 3.2
COc1ccc(-c2csc(NC(=S)NC(=O)c3ccco3)n2)cc1 | 2.0 | 6 | 0 | 2 | -10% | 3.1 | -1.7
CC(C)(C)CN1C(=O)C(=O)NC[C@@H]1CCCCN | 2.2 | -5 | -1 | -4 | / | 0.0 | 4.1
Cc1ccc(CNC(=O)C2CNc3cc(C)ccc3O2)cc1 (configuration not stated) | -0.3 | 6 | -4 | 3 | 15% | -1.3 | 8.1
Cn1cc(CCC(=O)NCCCc2ccccc2)c2ccccc21 | 2.2 | -10 | -4 | 1 | -9% | -4.7 | -6.1
CCCNS(=O)(=O)c1ccc(OCC(=O)N2CCN(c3ccccc3)CC2)cc1 | 0.0 | -11 | 22 | 4 | 3% | -1.7 | -1.6
Cc1cc(C)c(C(=O)CSc2nc3ccccc3c(=O)[nH]2)cc1C | 11 | 15 | / | -6 | -4% | 2.5 | 0.6
CCN(CC)c1ccc(S(=O)(=O)N(CC)CC)cc1NC(=O)c1cccnc1 | 1.9 | -15 | / | 5 | 0% | -3.3 | 6.2
CC(C)N(C)Cc1cn(C)nc1-c1ccc(Oc2ccccc2)cc1 | 3.9 | -11 | / | -6 | -11% | -1.7 | 2.5
COc1cc2c(cc1NC(=O)CN(C)Cc1cccc(OC)c1OC)oc1ccccc12 | -0.7 | 3 | -7 | 8 | -14% | -8.6 | -2.4
Cc1ccc(NC(=O)Nc2ccc3c(c2)nnn3C)cc1C | 0.8 | 17 | -1 | -2 | / | 0.5 | 5.2
Cc1ccc(S(=O)(=O)N2CCC(C(=O)N3CCCCCCC3)CC2)cc1 | 0.2 | / | / | -4 | -8% | / | /
CCC(C)NC(=O)CSC1=Nc2ccccc2C2=NC(CC(=O)NCc3ccccc3)C(=O)N12 (configuration not stated) | -4.3 | 15 | / | -6 | 15% | 2.7 | -4.1
Cc1ccc(NC(=O)CS(=O)CC(=O)N(CC(=O)NC2CCCC2)c2cccc(C)c2C)cc1 (configuration not stated) | -0.9 | 14 | 1 | 1 | -3% | 0.0 | 0.8
O=C(NC1CCCCC1)n1c(=O)oc2ccc(Cl)cc21 | -1.5 | -2 | -11 | -12 | 11% | 1.2 | -1.4
CCc1ccc(N=C2N=C(N)c3ccccc32)cc1 | -1.2 | 1 | / | -3 | 0% | 0.7 | 3.2
CC(C)(C)NC(=O)COC(=O)CNC(=O)c1cc(Cl)cc([N+](=O)[O-])c1 | -1.2 | -22 | -43 | 2 | / | 1.9 | -5.1
Cc1ccccc1C(=O)Nc1ccc(N2CCN(C(=O)c3ccco3)CC2)cc1 | -2.3 | -3 | 2 | -1 | / | -3.5 | 1.6
CCn1c(CCNC(=O)c2ccc(OC)cc2)nnc1SCc1ccc(Cl)c(Cl)c1 | -1.3 | -5 | -5 | -4 | 2% | i | -3.1
Cc1ccc(NC2=CC(=O)C(=O)c3ccccc32)cc1 | -0.3 | 101* | -35 | 5 | / | -0.6 | -3.2
CCOC(=O)C1=CN(Cc2cccc(F)c2)S(=O)(=O)N(CC)C1c1cccc(OC)c1 (configuration not stated) | -1.4 | / | / | 14 | 2% | / | /
CC1(C)CC(NC(=O)c2ccc3c(c2)OCO3)CC(C)(C)N1 | -0.8 | 1 | -3 | 1 | -6% | 1.3 | -4.2
CC1(c2ccc(OC(F)F)cc2)NC(=O)N(CC(=O)N2CCN(C(=O)c3ccco3)CC2)C1=O (configuration not stated) | -0.7 | / | -3 | -2 | -2% | 5.3 | /
COc1ccc(N(CC(=O)Nc2cccc(N(C)S(C)(=O)=O)c2)S(=O)(=O)c2ccc(C)cc2)cc1 | 2.4 | 0 | 14 | -5 | 5% | -1.6 | -5.4
Cc1cc(NC(=O)CSc2[nH]c(=O)cc(C(F)(F)F)c2C#N)no1 | -0.5 | / | 42 | 15 | -9% | -2.9 | /
COc1ccc(C(CNC(=O)c2ccc(Cl)c(NC(=O)c3cccs3)c2)N2CCCC2)cc1 (configuration not stated) | -0.3 | -1 | -11 | -13 | -5% | -0.5 | 5.8
Cc1oc(C(N)=O)nc1-c1ccccc1 | 3.2 | -5 | -8 | 0 | / | 4.2 | 3.3
Cc1ccc(Cn2nc(C)c(NC(=O)C3(C)CC3(Br)Br)c2C)cc1 (configuration not stated) | 1.4 | -47 | / | 1 | -11% | -0.3 | -2.6
COc1cccc(/C(O)=C2/C(=O)C(=O)N(c3ccccn3)C2c2ccc(OC)c(OC)c2)c1 (configuration not stated) | 2.2 | 9 | -4 | 6 | 1% | 2.6 | -0.1
CCCC(=O)C1=C(O)C(C(=O)OC)C(C)(C)CC1=NCCc1ccccc1 (configuration not stated) | 2.4 | 17 | 0 | 6 | / | -3.2 | 1.9
NC(=S)NC1CC2CC1C1C=CCC21 (configuration not stated) | -0.2 | -2 | 0 | -4 | -11% | 0.3 | 4.2
CCN(CC)c1ccc(Nc2nc(N3CCOCC3)c3ccccc3n2)cc1 | -1.8 | 45 | 99* | 7 | 25% | -4.4 | -1.1

Ordered by the number under RanGTP-Imp inh (descending): 3 of the compounds above
| compound | HNF4A DNA FP | ALR H2O2 inh | Beta2AR agonist | Vif A3G | LANA-H2B inh | RanGTP-Imp inh |
| --- | --- | --- | --- | --- | --- | --- |
| COc1ccc(C(CNC(=O)c2ccc(Cl)c(NC(=O)c3cccs3)c2)N2CCCC2)cc1 (configuration not stated) | -0.3 | -11 | -13 | -5% | -0.5 | 5.8 |
| CCCC(=O)C1=C(O)C(C(=O)OC)C(C)(C)CC1=NCCc1ccccc1 (configuration not stated) | 2.4 | 0 | 6 | / | -3.2 | 1.9 |
| Cc1ccc(Cn2nc(C)c(NC(=O)C3(C)CC3(Br)Br)c2C)cc1 (configuration not stated) | 1.4 | / | 1 | -11% | -0.3 | -2.6 |

The results go on:
SMILES | HNF4A DNA FP | Calb FLC | ALR H2O2 inh | Beta2AR agonist | Vif A3G | LANA-H2B inh | RanGTP-Imp inh
CCOC(=O)C1CCN(c2cc3c(cc2NC(=O)c2ccc(OC)c(OC)c2)n(C)c(=O)n3C)CC1 | 5.3 | -6 | -5 | 17 | / | -2.7 | -16
O=C(CN1CCOCC1)NN=C(c1ccccc1)c1ccccc1 | 0.9 | -7 | 1 | -4 | / | 9.2 | 0.8
CN(Cc1nccs1)C(=O)c1ccc(OC2CCN(CCc3ccccc3)CC2)cc1 | 1.6 | -14 | 2 | -1 | / | 0.8 | -2.7
CCN(c1ccccc1)S(=O)(=O)c1ccc(Cl)c(NC(=O)c2ccc(=O)[nH]n2)c1 | 7.5 | / | 1 | -1 | 9% | 1.0 | /
COc1ccc(NC(=O)CN(C)C(=O)C(CCSC)NC(=O)c2ccccc2)cc1 (configuration not stated) | 6.1 | 7 | 3 | 3 | -5% | 4.9 | ?
C#CCOCCOCCOCCNc1nc(N2CCN(C(=O)CCCCCCCCCCNC(=O)[C@H](CCCCN)n3cc(CCCC(=O)O)nn3)CC2)nc(N2CCN(C(=O)CCCCCCCCCCNC(=O)[C@@H]([C@H](C)O)n3cc(C)nn3)CC2)n1 | 4.1 | / | -7 | 4 | / | 1.7 | /
COc1ccc(OC)c(N2CC(O)=C(c3nc4ccccc4s3)C2=N)c1 | -5.0 | 4 | -4 | -7 | 26% | -3.7 | -6.0
COc1ccccc1CNC(=O)COC(=O)/C=C/c1cccs1 | 0.1 | -12 | -6 | -3 | 20% | -1.0 | -0.4
CCC(=O)/C=C1/Sc2ccccc2N1CC | 7.6 | -17 | / | 10 | 10% | -5.7 | 1.2
COc1ccc(CCNC(=O)c2ccc3c(c2)N(Cc2ccc(F)cc2)CCS3)c(OC)c1 | 1.8 | -3 | 0 | 3 | / | -8.2 | 2.5
C=CCn1cn[nH]c1=S | 2.1 | 9 | 0 | 11 | 2% | -4.1 | -0.1
Cc1ccc(NC(=S)N2CCCC(CO)C2)c(C)c1 (configuration not stated) | -4.3 | -17 | 7 | -2 | ? | 30* | ?
Cc1cccc(CN(CC(=O)N/N=C/c2cccs2)S(=O)(=O)c2ccc(Cl)cc2)c1 | -0.8 | -12 | -17 | -4 | 2% | 1.1 | -2.7
Cn1cc(S(=O)(=O)N2CCCC2)cc1C(=O)NCc1ccccc1 | 2.7 | -7 | -6 | 0 | / | 1.1 | -0.8
CCOC(=O)C(CC(C)C)CP(=O)(O)CNC(=O)OCc1ccccc1 (configuration not stated) | 0.9 | -3 | -4 | -4 | 8% | 1.1 | 7.8
O=C(CCC(=O)N1CCN(Cc2ccc(F)cc2)CC1)Nc1nnc(C2CCCCC2)s1 | 1.5 | 6 | -7 | -10 | 1% | 3.4 | 2.0
CCOc1cc(C)c(Cl)cc1S(=O)(=O)n1nnc2ccccc21 | 0.4 | -1 | 1 | -6 | ? | 1.3 | -4.5
O=C(CNC(=O)c1sc2ccccc2c1Cl)NCc1ccc(F)cc1 | 0.5 | 5 | -1 | 2 | -13% | 1.5 | 4.7
COc1ccc(C2C(C(C)=O)=C(C)N=c3s/c(=C/c4ccc5c(c4)OCO5)c(=O)n32)cc1 (configuration not stated) | / | -19 | / | / | 17% | / | -7.2
Cc1ccc(NC(=O)c2ccccc2F)cc1S(=O)(=O)N1CCCCCC1 | 1.6 | 25 | 14 | 7 | / | 1.4 | -2.0
Cc1ccc(-n2c(SCC(N)=O)nc3c(oc4ccccc43)c2=O)cc1 | -1.8 | 4 | 7 | -9 | -5% | -5.0 | 1.9
